A1 inh: inhibitors of the anti-apoptotic protein A1, read as caspase activation. MEF A1-2A-BIM cells, Caspase-Glo 3/7 luminescence, 3 h; percent of clofoctol response, vehicle zero. caspase activation, % (test concentration not listed). actives 0.066% (n = 330,000). AID 2462;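 active = over half of replicate activation scores above 10%, or exactly half above 10 with the replicate mean above 10; inconclusive = replicate mean below 10 yet half the replicates above 10; inactive = over half of replicates below 10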;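 also: wells of about 30 µL received 50 nL stock; many hits fall short of the cut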
HNF4A DNA FP: change in binding of human HNF4 alpha to DNA. actives 0.3% (n = 360,000). P41235. activity change, % at 10 µM. HNF4a-FITC DNA binding, fluorescence polarization, 1 h; in the data active = activity change above about 30%, passing the limit was not always enough;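 also: controls were the assay level and a saturating level of protein; the project sought stronger binding though the title names inhibitors; some compounds called inactive have numbers as strong as hits; positive values seem to mean higher polarization but the record does not say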
LANA-H2B inh: blocks KSHV LANA binding to histone H2A/H2B; Q9QR71; cell-free LANA-H2A/H2B peptide, fluorescence polarization; inhibition, % (test concentration not listed); actives 0.6% (n = 320,000); AID 2629; in the data active = inhibition mostly above about 10%, no sharp cut-off; inactive = mostly below about 6.7%;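 also: stock transfer was 7.5 nL into about 10 µL; 0% = median of vehicle wells and 100% = median of positive control wells; one replicate is shown; the record names a cut of 25% in any replicate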
Target sequence (Q9QR71 whole entry, looked up): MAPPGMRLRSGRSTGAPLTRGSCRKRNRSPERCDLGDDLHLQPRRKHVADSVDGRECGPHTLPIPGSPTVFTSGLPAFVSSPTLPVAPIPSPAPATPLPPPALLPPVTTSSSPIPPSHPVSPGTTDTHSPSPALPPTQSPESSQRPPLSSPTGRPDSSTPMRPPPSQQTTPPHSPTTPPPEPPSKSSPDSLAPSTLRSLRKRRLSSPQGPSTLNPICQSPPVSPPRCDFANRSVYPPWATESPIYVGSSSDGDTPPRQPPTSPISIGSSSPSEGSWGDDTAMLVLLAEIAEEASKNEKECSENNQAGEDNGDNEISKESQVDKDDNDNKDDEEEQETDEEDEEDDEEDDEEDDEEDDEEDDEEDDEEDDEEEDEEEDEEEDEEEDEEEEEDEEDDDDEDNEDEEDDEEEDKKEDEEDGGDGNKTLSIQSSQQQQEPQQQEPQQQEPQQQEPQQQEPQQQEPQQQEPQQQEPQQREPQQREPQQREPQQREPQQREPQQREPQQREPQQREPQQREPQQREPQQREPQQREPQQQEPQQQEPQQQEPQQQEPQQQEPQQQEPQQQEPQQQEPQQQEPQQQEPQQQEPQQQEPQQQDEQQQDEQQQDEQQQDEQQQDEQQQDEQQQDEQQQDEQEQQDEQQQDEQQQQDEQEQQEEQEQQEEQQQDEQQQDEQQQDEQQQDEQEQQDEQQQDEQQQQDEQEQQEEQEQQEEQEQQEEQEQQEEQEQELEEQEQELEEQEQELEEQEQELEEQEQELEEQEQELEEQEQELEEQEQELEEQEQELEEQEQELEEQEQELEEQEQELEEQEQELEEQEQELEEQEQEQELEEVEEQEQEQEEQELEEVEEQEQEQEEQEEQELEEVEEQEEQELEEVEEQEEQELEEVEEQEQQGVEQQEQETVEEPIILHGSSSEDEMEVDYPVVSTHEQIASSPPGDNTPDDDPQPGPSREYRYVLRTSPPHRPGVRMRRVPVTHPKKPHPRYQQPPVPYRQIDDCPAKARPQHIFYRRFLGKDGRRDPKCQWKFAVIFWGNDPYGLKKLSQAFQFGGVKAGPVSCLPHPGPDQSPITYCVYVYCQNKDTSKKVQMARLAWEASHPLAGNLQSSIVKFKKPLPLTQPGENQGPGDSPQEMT
B2AR ag: agonists of human beta-2 adrenergic receptor inducing internalization; P07550; Am2.2-beta2AR cells, FAP receptor internalization, flow cytometry; reference of the scale not given here; response, % (concentration not given with the values); actives 0.43% (n = 340,000); AID 504454;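 active = response above a set limit, near 3 SD of response in nonfluorescent compounds, cut at about 42% in these data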;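 also: stock transfer was 100 nL into about 11 µL; a reference agonist was the positive control; negative values mostly stem from fluorescent compounds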
UCH37 DUB inh: blocks the human deubiquitinase UCH37 | purified proteasome/UCH37, Ub-AMC cleavage fluorescence | Q9Y5K5 | AID 588478 | actives 0.33% (n = 330,000) | inhibition, % (concentration not given with the values);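 active = mean of two replicates above 20%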;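 also: 0% = compound-free wells with enzyme and 100% = wells lacking proteasome; stock transfer was 100 nL into about 20 µL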
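Schedule: 30 min plus 25 min, room temperature / Material: human UCH37 within purified proteasomes / Technique: AMC fluorescence intensity at 355/460 nm / Buffer or medium: pH 7.4 Tris-HCl (50 mM) with ovalbumin, ATP-MgCl2, DTT / Controls: wells without proteasome as full block, compound-free enzyme plus substrate as uninhibited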
E coli growth: blocks Escherichia coli growth; OD600, 23 h; stronger effect = lower value; OD600 absorbance (test concentration not listed); actives 0.21% (n = 330,000); AID 1053175;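 active = OD600 absorbance below the run mean of sample wells minus 3.6 SD, in any replicate, cut at about 0.56 in these data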;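 also: stock transfer was 300 nL into about 60 µL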
Vif A3G: inhibitors of Vif binding to APOBEC3G peptide, primary screen, biochemical, TR-FRET, GST-Vif 1-94, biotin-A3G peptide, dose response retest (AID 1117319) | actives 0.57% (n = 260,000) | one-dose inhibition, %; IC50 in µM for titrated hits | TR-FRET GST-Vif / biotin-A3G peptide binding; higher % means a stronger effect; test concentration not given here; strong numbers were not always called active;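 active = above the screen mean plus three standard deviations and confirmed in dose response; inconclusive = results disagree or hit not tested in dose response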;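 also: Vif residues 1-94 fused to GST binding biotinylated APOBEC3G peptide 110-148; 0% = full assay without inhibitor and 100% = GST in place of GST-Vif; retest series ran down from 100 µM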
Starred values were filed as active, the others as inactive; ? = inconclusive; / = not tested or not shown; & = joins results of further samples.

SMILES	A1 inh	HNF4A DNA FP	LANA-H2B inh	B2AR ag	UCH37 DUB inh	E coli growth	Vif A3G
CC1CCCN(CCCOc2ccc(Cl)cc2Br)C1 (stereo unspecified)	-1.0	1.3	2.3	13	5.3	0.67	1%
COc1cccc(CNS(=O)(=O)c2c(C)[nH]c(C)c2C(=O)N2CCCC2)c1	0.1	1.3	-13	14	2.3	0.71	15%
O=C(NCC(=O)N(Cc1ccco1)C(C(=O)NC1CCCCC1)c1cccnc1)c1ccco1 (stereo unspecified)	1.0	-1.8	2.6	0	-0.8	0.73	?
CC1(C)C2CCC1(CS(=O)(=O)N1CCC(C(N)=O)CC1)C(=O)C2 (stereo unspecified)	-0.4	2.2	-4.9	3	3.7	0.73	/
Cc1ccc(NC(=O)Cn2c(=O)n(Cc3ccco3)c(=N)c3c4c(sc32)COC(C)(C)C4)cc1	0.7	1.9	7.4	8	1.5	0.68	12%&-10%
Cc1cc(SC(C)C(=O)Nc2c(C)n(C)n(-c3ccccc3)c2=O)nc2ccccc12 (stereo unspecified)	-0.3	1.3	1.0	-9	3.1	0.67	1%
CCOC(=O)Nc1ccc2c(CN3CCC(C(=O)OC)CC3)cc(=O)oc2c1	0.5	1.7	0.3	-11	-62	0.68	4%
COc1cc(-c2nnc(NC(=O)CCS(=O)(=O)c3ccccc3)o2)cc(OC)c1OC	-1.0	3.4	2.8	0	5.6	0.64	2%
CCCN1CCC(=O)N([C@H](CSc2ccc(OC)cc2)CC(C)C)CC1	-0.5	-3.6	-0.1	0	2.0	/	/
COc1ccc(N(CC(=O)Nc2ccc(S(=O)(=O)N3CCOCC3)cc2)S(=O)(=O)c2ccccc2)cc1	-0.1	0.4	1.3	14	5.4	0.79	-3%
CCOc1ccc(CNC(=O)Cn2nc(C)n3nc(-c4ccccc4)cc3c2=O)cc1	0.1	1.6	-0.5	-5	-1.0	0.7	/
O=C(Nc1nc2nc(-c3ccccc3)cc(-c3ccccc3)n2n1)c1ccco1	0.0	1.1	-6.5	-16	-61	0.7	-2%
CC(=O)C(Sc1nc(N(C)C)nc(N(C)C)n1)C(=O)Nc1ccccc1 (stereo unspecified)	-0.3	3.8	-1.5	9	1.9	0.65	-7%
Cc1ccc(S(=O)(=O)c2nc(S(C)(=O)=O)sc2N2CCOCC2)cc1	-0.7	-7.6	-0.4	-5	3.8	0.69	/
Cc1ccc(C(C)C)c(OCC(=O)NC2CCN(C)CC2)c1	-0.4	0.2	-2.1	-4	0.6	0.67	-7%
COc1cccc(CNC(=O)c2cccc(S(=O)(=O)N3CCN(c4ccc(F)cc4)CC3)c2)c1	-0.1	-2.7	22*	-10	3.4	0.73	/
O=C(O)CCC(=O)c1ccc2sc3ccccc3c2c1	/	4.9	/	-4	/	/	-2%
COC(=O)c1cc(NS(=O)(=O)c2ccc(NC(C)=O)cc2)ccc1Cl	0.1	0.9	-6.5	-3	4.6	0.66	?
O=C(Nc1cccnc1)c1ccc(F)cc1	-2.9	0.8	2.5	-12	1.9	0.74	-1%
CCN(CC(=O)NCCCN1CCOCC1)S(=O)(=O)c1ccc(Cl)cc1	0.5	2.0	1.3	-6	3.3	0.66	/
O=C(NNC(=O)c1csc(N2CCOCC2)n1)c1cccnc1	0.1	3.1	-0.9	-3	2.2	0.68	8%
O=C1C=CC[C@H](/C=C/C[C@@H](O)C[C@H](O)CCc2ccccc2)O1	0.1	3.2	-1.7	/	0.5	0.75	/
O=C(/C=C/c1ccccc1Cl)N(Cc1cccs1)C1CCS(=O)(=O)C1 (stereo unspecified)	-0.8	2.4	5.3	2	3.9	0.65	0%
CSc1ccc(N2C(=O)NC3(CCCCC3)C2=O)cc1	0.5	-0.1	1.6	-5	0.0	0.7	-4%

As a short view, part of the list above:
SMILES	A1 inh	HNF4A DNA FP	LANA-H2B inh	B2AR ag	UCH37 DUB inh	E coli growth	Vif A3G
O=C(Nc1cccnc1)c1ccc(F)cc1	-2.9	0.8	2.5	-12	1.9	0.74	-1%
CCN(CC(=O)NCCCN1CCOCC1)S(=O)(=O)c1ccc(Cl)cc1	0.5	2.0	1.3	-6	3.3	0.66	/
O=C(NNC(=O)c1csc(N2CCOCC2)n1)c1cccnc1	0.1	3.1	-0.9	-3	2.2	0.68	8%
O=C1C=CC[C@H](/C=C/C[C@@H](O)C[C@H](O)CCc2ccccc2)O1	0.1	3.2	-1.7	/	0.5	0.75	/
O=C(/C=C/c1ccccc1Cl)N(Cc1cccs1)C1CCS(=O)(=O)C1 (stereo unspecified)	-0.8	2.4	5.3	2	3.9	0.65	0%
CSc1ccc(N2C(=O)NC3(CCCCC3)C2=O)cc1	0.5	-0.1	1.6	-5	0.0	0.7	-4%

Following part
SMILES	A1 inh	HNF4A DNA FP	LANA-H2B inh	B2AR ag	UCH37 DUB inh	E coli growth	Vif A3G
COc1ccc(CN(C(=O)c2oc3ccccc3c2C)C2CCS(=O)(=O)C2)cc1 (stereo unspecified)	0.1	-0.1	2.4	-6	3.3	0.75	?
CC12CCC(C(=O)Nc3cccc(Cl)c3Cl)([C@H](Br)C1=O)C2(C)C (stereo partly specified)	0.1	-3.4	1.4	0	3.5	0.65	/
CC1(C)C(c2cccs2)=[N+]([O-])C2(CCCCC/C2=N\NC(N)=S)N1O (stereo unspecified)	0.8	-0.2	4.1	13	/	/	19%
O=c1[nH]cnc(O)c1C(c1ccc(F)cc1)c1c(O)nc[nH]c1=O	0.6	2.2	-3.6	-2	0.1	0.67	/
CCc1cc(=O)[nH]c(SCc2ccc(C)cc2)n1	-4.7	-5.0	7.5	-1	5.2	0.75	4%
O=C(CSCc1ccc(Cl)cc1)N1CCCCC1	-0.3	1.4	-4.8	6	1.4	0.79	5%
O=c1c2ccccc2nc2sc(Nc3cccc(Cl)c3)nn12	0.3	13	6.4	-9	0.9	0.64	/
CC(C)(C)NC(=O)CN(C(=O)C(=O)Nc1ccc2c(c1)OCCO2)N1CCOCC1	0.4	-1.9	-1.8	11	2.2	0.72	/
CCOc1ccc(-n2c(C)c(C(C)=O)c3cc(OC(C)=O)ccc32)cc1	-0.3	-1.2	-3.9	-5	0.5	0.7	/
Cc1cc(C)n(-c2nc3c(c(=O)[nH]c(=O)n3C)n2CC(O)COc2ccc(Cl)cc2Cl)n1 (stereo unspecified)	0.1	2.1	-2.9	7	2.2	0.75	5%
COc1cc(CNCCc2ccccc2F)ccc1OCC(=O)N1CCCCC1	0.7	1.1	-8.7	2	5.7	0.67	-1%
Cc1cc(NS(=O)(=O)c2ccc(NC(=O)Nc3cccc(C(F)(F)F)c3)cc2)no1	-1.4	-2.0	-1.9	7	2.5	0.6	/
CCCNC(=O)CCNC(=O)[C@H](O)C(C)(C)CO	/	1.2	/	-3	0.4	0.74	0%
O=C(CCNS(=O)(=O)c1ccc(OC(F)(F)F)cc1)NCCc1c[nH]c2ccccc12	-0.2	2.3	5.2	-5	-0.1	0.71	-7%
C[C@H](CO)N1C[C@H](C)[C@@H](CN(C)C(=O)Nc2ccccc2)Oc2ccc(NC(=O)CCC(F)(F)F)cc2C1=O	-0.1	-1.0	-1.7	-6	7.6	0.77	/
COc1ccc(S(=O)(=O)NCC(=O)Nc2ccc3c(c2)OCCO3)cc1OC	-1.4	0.7	-8.3	3	2.2	0.66	4%
O=C(O)Cc1ccc(O)cc1	0.1	-5.2	7.2	1	-2.0	0.7	/
O=C(Nc1ccc2c(c1)OCO2)N1CCN(C/C=C/c2ccccc2)CC1	0.5	-0.8	3.6	9	1.5	0.63	7%
CCCN1CCC(=O)N([C@H](COc2ccccc2)Cc2ccccc2)CC1	0.1	0.3	2.9	-1	1.6	/	/
COc1cc(OC)cc(-c2nc3ccccc3c(=O)n2OC(=O)c2ccc(C)c(C)c2)c1	-0.6	-1.0	0.9	19	5.5	0.7	/
O=C(NCCCN=C1NS(=O)(=O)c2ccccc21)c1ccc(F)cc1	2.6	2.5	0.7	-1	-2.1	0.67	/
O=C(Nc1ccnn1C1CCN(Cc2ccn[nH]2)CC1)c1ccccc1	-1.7	-0.9	-1.2	0	4.2	0.71	4%
O=C(NNC1=NCCC1)c1cccc(S(=O)(=O)N2CCCCC2)c1	1.1	3.8	2.8	28	2.2	0.68	/
CC(=O)C12OC(C)(C)OC1CC1C3CCC4=CC(=O)C=CC4(C)C3(F)C(O)CC12C (stereo unspecified)	/	2.9	/	15	1.8	0.64	11%
COC(=O)c1ccc(-c2noc(CN3CCCCC3c3nccn3C)n2)cc1 (stereo unspecified)	0.5	3.9	-4.8	2	2.6	0.63	6%
Cc1cc(Cl)ccc1NC(=O)c1ccc2c(c1)OCO2	-3.2	2.9	-3.6	0	2.3	0.62	/
COc1cccc(N(C(=O)c2nc3nccc(C)n3n2)c2nc3ccccc3s2)c1	-1.0	-2.8	-1.2	-9	-1.7	0.66	/
COc1cc(CNCc2ccccn2)ccc1OCC(N)=O	-1.8	1.4	6.3	-1	0.1	0.65	3%
CC(C)CN(C(=O)COC(=O)C1c2ccccc2Oc2ccccc21)C1CCS(=O)(=O)C1 (stereo unspecified)	0.6	1.9	1.6	-2	-0.5	0.73	-4%
Cc1cc(C(=O)COc2ncnc3sccc23)c(C)n1C1CC1	-0.5	-2.2	-1.2	-3	1.9	0.71	9%
O=C(OCCCN1C(=O)c2ccccc2C1=O)c1ccco1	0.2	1.6	-0.3	-1	3.4	0.77	3%
CC1=CC(C)(C)Nc2ccc(C)cc21	-0.3	-2.2	-5.2	4	-66	0.71	14%
COc1ccc(NC(=S)NNC(=O)CNc2ccc(Cl)cc2)cc1	-0.3	4.0	-6.6	-4	3.7	0.72	7%
Cc1ccc(S(=O)(=O)NC(C)(C)CSc2nnc(Nc3ccccc3)s2)cc1	0.5	0.5	-0.5	6	1.9	0.73	2%
O=S(=O)(c1cc(C(F)(F)F)ccc1Cl)N1CCN(c2ccccn2)CC1	-0.3	-0.3	-0.7	-12	1.2	0.69	7%
CC1(OCON)CCCc2ccccc21 (stereo unspecified)	0.4	-2.8	2.7	2	4.1	0.67	/
COc1ccc(S(=O)(=O)N2CCCCCC2)cc1C(=O)OCC(=O)NC(N)=O	0.4	-1.8	-1.5	1	5.1	0.68	69%
CCCOc1ccc(C(=O)Nc2nc(C)c(Cc3ccc4c(c3)OCO4)s2)cc1	-1.2	1.5	0.8	2	-9.5	0.69	/
O=C(Nc1ccc(S(=O)(=O)NCC2CCCO2)cc1)c1ccc(Cl)cc1[N+](=O)[O-] (stereo unspecified)	0.2	3.0	-1.3	-1	5.5	0.69	3%
Cc1cc(-c2ccco2)n(CC(=O)NCc2ccco2)n1	0.1	-1.4	0.6	0	7.7	0.7	7%
CC(=O)c1ccc(N2CCN(C(=S)Nc3ccccc3)CC2)cc1	-0.7	-0.6	1.0	-1	2.9	0.69	-80%
CC(=O)C1=C(O)C(=O)N(c2ccc(O)cc2)C1c1ccc(C)cc1 (stereo unspecified)	0.5	-5.0	2.0	-2	4.3	0.7	/
CCCCc1ccc(CC(=O)O)cc1	0.1	2.4	-2.7	3	1.3	0.71	-5%
Cc1nc(C(C)NC(=O)CCc2nnc(Cc3c[nH]c4ccccc34)o2)cs1 (stereo unspecified)	0.1	3.8	1.2	1	2.2	0.63	7%
COc1ccc(C(C(=O)OC(C)CN(C)C)c2ccccc2)cc1 (stereo unspecified)	1.6	0.7	-2.8	2	2.8	0.76	0%
CCN(CC)CCN1C(=O)C(=O)/C(=C(/O)c2ccccc2)C1c1ccccc1F (stereo unspecified)	-1.1	-1.8	-1.0	2	1.9	/	2%
Cc1cccn2c(=O)c3cc(C(=O)N(C)C)n(C)c3nc12	0.0	-7.3	2.1	5	-265	0.71	-2%

High-throughput results as filed in PubChem.
